FGF22 binding = FGF22 (human) thermal shift binding | Q9HCT0 | recombinant FGF22 thermal shift, SYPRO orange fluorescence; percent of sucrose octasulfate shift, DMSO zero | calls only at 9.99 µM | 1.5% of 340,000 active;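 active = melting point raised past a set limit in the mean and every replicate; three in four hits are not shown here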
Target sequence (Q9HCT0 whole entry, looked up): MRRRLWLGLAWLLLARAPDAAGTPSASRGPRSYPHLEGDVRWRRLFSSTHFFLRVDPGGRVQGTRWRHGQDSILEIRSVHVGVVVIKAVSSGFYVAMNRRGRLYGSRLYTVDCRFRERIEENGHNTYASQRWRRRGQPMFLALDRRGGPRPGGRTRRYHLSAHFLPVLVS
Calls only; i = inactive. Only part of the results is shown, so the mix of outcomes need not match the whole.

SMILES | FGF22 binding
O=C(C[C@@H]1C[C@H]2c3cc(NC(=O)C4CCOCC4)ccc3O[C@H]2[C@H](CO)O1)NCc1cc(F)ccc1F | i
OC[C@@H]1[C@H](c2ccc(-c3ccccc3F)cc2)[C@H]2CN(Cc3cccnc3)CCCCN12 | i
CO[C@H]1CN(C)C(=O)c2cc(NC(C)=O)ccc2OC[C@H](C)N(C(=O)c2ccccc2F)C[C@@H]1C | i
C[C@@H]1CN([C@@H](C)CO)S(=O)(=O)c2ccc(-c3cccnc3)cc2O[C@@H]1CN(C)C(=O)c1ccc2c(c1)OCO2 | i
CCCNC(=O)N(C)C[C@@H]1Oc2cc(C#CC3CC3)ccc2S(=O)(=O)N([C@H](C)CO)C[C@H]1C | i
C[C@@H]1CN([C@@H](C)CO)C(=O)Cc2cc(NC(=O)C3CC3)ccc2O[C@H]1CN(C)S(=O)(=O)c1ccccc1 | i
CO[C@@H]1CN(C)C(=O)c2cc(NC(=O)C3CCC3)ccc2OC[C@@H](C)N(C)C[C@H]1C | i
Cc1noc(C)c1NC(=O)N[C@H]1CC[C@@H](CC(=O)Nc2ccc(-c3ccccc3)cc2)O[C@@H]1CO | i
C[C@@H]1CCCCO[C@H](CN(C)C(=O)c2ccccc2)[C@@H](C)CN([C@H](C)CO)C(=O)c2cc(NS(=O)(=O)c3ccc(Cl)cc3)ccc2O1 | i
CO[C@H]1CN(C)C(=O)c2ccc(NS(=O)(=O)c3cn(C)cn3)cc2OC[C@H](C)N(CC2CC2)C[C@@H]1C | i
C/C=C/c1cnc2c(c1)C(=O)N([C@@H](C)CO)C[C@H](C)[C@@H](CN(C)C(=O)Nc1ccc(OC)cc1)O2 | i
C[C@@H]1CN([C@@H](C)CO)S(=O)(=O)c2ccc(C#CC3CCCC3)cc2O[C@H]1CN(C)C(=O)Cc1ccccc1 | i
C[C@@H]1CN([C@H](C)CO)C(=O)c2cc(-c3cccc(C#N)c3)cnc2O[C@@H]1CN(C)C(=O)C1CCC1 | i
CC(C)(O)C#Cc1cccc(-c2nc(C(=O)N[C@@H]3CCN(Cc4ccccc4)C3)cc3c2[C@@H](CCO)N(S(=O)C(C)(C)C)C3)c1 (stereo partly drawn) | i
Cc1ccc(S(=O)(=O)N(C)C[C@H]2OCCCC[C@@H](C)Oc3ccc(NS(=O)(=O)c4ccccc4)cc3C(=O)N([C@H](C)CO)C[C@@H]2C)cc1 | i
CC(C)C#Cc1ccc2c(c1)O[C@H](CN(C)C(=O)NC(C)C)[C@@H](C)CN([C@@H](C)CO)S2(=O)=O | i
C[C@@H]1CN([C@H](C)CO)C(=O)c2cccc(NC(=O)c3ccc(-c4nccs4)cc3)c2O[C@@H]1CN(C)Cc1ccc(Oc2ccccc2)cc1 | i
CC(C)(C)[S@](=O)N1Cc2cc(C(=O)NCCN3CCCC3)nc(-c3cccc(-c4ccc(C#N)cc4)c3)c2[C@@H]1CCO | i
COc1ccc(S(=O)(=O)N(C)C[C@@H]2Oc3ccc(NC(=O)Nc4ccc5c(c4)OCO5)cc3C(=O)N([C@H](C)CO)C[C@H]2C)cc1 | i
C[C@@H]1CN([C@H](C)CO)C(=O)c2cc(NC(=O)Nc3ccccc3)ccc2O[C@@H](C)CCCCO[C@@H]1CN(C)Cc1ccc(C(F)(F)F)cc1 | i
CC(C)NC(=O)Nc1ccc2c(c1)C(=O)N([C@@H](C)CO)C[C@H](C)[C@H](CN(C)Cc1ccncc1)OCCCC[C@@H](C)O2 | i
C[C@H]1CN([C@@H](C)CO)C(=O)c2cc(NC(=O)CCCN(C)C)ccc2O[C@@H]1CN(C)C | i
CCS(=O)(=O)Nc1ccc2c(c1)C(=O)N(C)[C@H]1CC[C@H](CC(=O)Nc3ccccc3C)O[C@@H]1CO2 | i
OC[C@H]1[C@@H](c2ccccc2)C2(CN(Cc3cccnc3)C2)N1Cc1ccncc1 | i
COCCNC(=O)C[C@@H]1CC[C@H](NS(=O)(=O)c2ccc(C)cc2)[C@@H](CO)O1 | i
COc1ccc(NC(=O)N(C)C[C@H]2Oc3ncc(-c4ccc(C#N)cc4)cc3C(=O)N([C@H](C)CO)C[C@H]2C)cc1 | i
C[C@H]1CN([C@@H](C)CO)S(=O)(=O)c2ccc(C3=CCCCC3)cc2O[C@@H]1CN(C)Cc1cccnc1 | i
C[C@@H]1CN([C@@H](C)CO)C(=O)c2cccc(NC(=O)Nc3ccc4c(c3)OCO4)c2O[C@@H]1CN(C)Cc1ccc(Oc2ccccc2)cc1 | i
C[C@H]1CN([C@@H](C)CO)C(=O)c2c(c3ccccc3n2C)-c2ccccc2CO[C@H]1CN(C)C(=O)CCC(F)(F)F | i
CN(C)CC#Cc1ccc([C@@H]2[C@H](CO)N3CCCCN(CC4CCOCC4)C[C@@H]23)cc1 | i
C[C@H]1CN([C@@H](C)CO)C(=O)c2cccc(NC(=O)Nc3ccc(C(F)(F)F)cc3)c2O[C@@H]1CN(C)C(=O)Nc1cccc2ccccc12 | i
COc1ccc(CN(C)C[C@@H]2Oc3ccc(NC(=O)CCN4CCOCC4)cc3C(=O)N([C@H](C)CO)C[C@H]2C)cc1 | i
C/C=C/c1ccc2c(c1)O[C@H](CN(C)C(=O)C1CCCCC1)[C@H](C)CN([C@@H](C)CO)S2(=O)=O | i
C[C@@H]1CN([C@H](C)CO)S(=O)(=O)c2ccc(C#CC3CCCCC3)cc2O[C@@H]1CN(C)Cc1cccnc1 | i
CCS(=O)(=O)Nc1ccc2c(c1)C(=O)N(C)C[C@H](OC)[C@@H](C)CN(Cc1ccccn1)[C@H](C)CO2 | i
CCCN1[C@@H]2c3ccc(-c4cccc(F)c4)c(=O)n3C[C@@H]2[C@@H](CO)[C@@H]1C(=O)N(C)C | i
COCC(=O)N(C)C[C@@H]1[C@@H](c2ccc(-c3cccnc3)cc2)[C@H](CO)N1C(C)=O | i
COc1ccc(S(=O)(=O)Nc2ccc3c(c2)C(=O)N([C@@H](C)CO)C[C@@H](C)[C@@H](CN(C)C(=O)Cc2ccccc2)OCCCC[C@H](C)O3)cc1 | i
Cc1noc(C)c1NC(=O)N(C)C[C@@H]1OCCCC[C@@H](C)Oc2ccc(NC(=O)Nc3cccc4ccccc34)cc2C(=O)N([C@H](C)CO)C[C@@H]1C | i
COc1cccc(NC(=O)N2CC(=O)N3[C@H](C2)[C@H](c2ccc(C#CCC4CCCC4)cc2)[C@@H]3CO)c1 | i
O=C(NC1CCCC1)N[C@H]1C=C[C@@H](CC(=O)N2CCOCC2)O[C@H]1CO | i
COc1ccc(S(=O)(=O)N[C@@H]2C=C[C@@H](CC(=O)NCc3ccccc3F)O[C@@H]2CO)cc1 | i
COc1ccccc1S(=O)(=O)N[C@@H]1CC[C@@H](CCn2cc(C3CCCCC3)nn2)O[C@H]1CO | i
COC(=O)C[C@H]1CC[C@@H]2[C@@H](COc3ccc(NS(=O)(=O)c4cccc(F)c4)cc3C(=O)N2C)O1 | i
COc1ccc2c3c([nH]c2c1)[C@@H](CO)N(Cc1ccccc1)CC31CCN(Cc2cncnc2)CC1 | i
C[C@H]1CN([C@@H](C)CO)C(=O)c2cc(C3=CCCCC3)cnc2O[C@@H]1CN(C)C(=O)NC1CCCC1 | i
CCCNC(=O)C[C@@H]1CC[C@@H]2[C@@H](COc3ccc(NC(=O)c4cccc(C(F)(F)F)c4)cc3C(=O)N2C)O1 | i
C[C@H](CO)N1C[C@H](C)[C@@H](CN(C)Cc2cccc(F)c2)Oc2ncc(C#C[C@@H](C)O)cc2C1=O | i
COc1ccc2c3c(n(C)c2c1)[C@H](CO)N(C(=O)CC1CC1)CC31CN(Cc2nccs2)C1 | i
O=S(=O)(c1cccc(F)c1)N1CC[C@@H]2[C@H]1c1cc(C#Cc3ccccc3F)ccc1N[C@@H]2CO | i
O=C(C[C@@H]1C=C[C@H](NC(=O)C2CC2)[C@H](CO)O1)Nc1ccccc1 | i
COc1ccc2c3c([nH]c2c1)[C@H](CO)N(C(=O)CN(C)C)CC31CN(CC2CC2)C1 | i
CC(=O)N(C)C[C@H]1Oc2cc(C#C[C@H](C)O)ccc2S(=O)(=O)N([C@@H](C)CO)C[C@H]1C | i
CCC(=O)Nc1ccc2c(c1)OC[C@H](C)N(CC1CCOCC1)C[C@@H](C)[C@H](OC)CN(C)C2=O | i
CC(C)CC#Cc1ccc([C@H]2[C@@H](CO)N3C(=O)CN(C(=O)Nc4cc(F)ccc4F)C[C@H]23)cc1 | i
O=C(O)C[C@@H]1CC[C@H](NC(=O)Nc2cc(F)ccc2F)[C@H](CO)O1 | i
C[C@H](CO)N1C[C@H](C)[C@H](CN(C)C)Oc2ccc(NS(=O)(=O)c3ccc(F)cc3)cc2C1=O | i
C=CCOC(=O)[C@H]1[C@@H]2C(=O)O[C@@H](c3ccccc3)[C@@H](c3ccccc3)N2[C@@H](c2ccc(OCCOC(=O)[C@H]3C[C@H]4C(=O)N[C@@H](Cc5ccccc5)C(=O)N4[C@H]3c3ccc(O)cc3)cc2)[C@]12C(=O)Nc1ccc(I)cc12 | i
Cc1cccc(-c2ccc([C@@H]3[C@@H](CO)N4CCCCN(S(=O)(=O)c5cccs5)C[C@H]34)cc2)c1 | i
C[C@H]1CN([C@@H](C)CO)S(=O)(=O)c2ccc(-c3cccnc3)cc2O[C@H]1CN(C)Cc1ccccn1 | i

(continued)
SMILES | FGF22 binding
CC(C)NC(=O)N(C)C[C@@H]1Oc2ncc(C#CC3CC3)cc2C(=O)N([C@@H](C)CO)C[C@H]1C | i
C[C@H]1CN([C@@H](C)CO)C(=O)c2cc(C3=CCCC3)cnc2O[C@@H]1CN(C)Cc1ccccc1C(=O)O | i
CO[C@H]1CN(C)C(=O)c2cc(NS(=O)(=O)c3cccc(Cl)c3)ccc2OC[C@@H](C)NC[C@H]1C | i
O=C(C(=O)N1CCC(CNC(=O)c2cccs2)CC1)c1cc2ccccc2o1 | i
CN(C)C(=O)C[C@@H]1CC[C@@H]2[C@@H](COc3ccc(NC(=O)C4CCOCC4)cc3C(=O)N2C)O1 | i
O=C(C[C@H]1CC[C@H]2[C@@H](COC[C@@H](O)CN2Cc2cccc(C(F)(F)F)c2)O1)NCc1ccc(Cl)cc1 | i
O=C(C[C@H]1CC[C@H](NC(=O)c2ccncc2)[C@H](CO)O1)NCC1CC1 | i
COc1ccc(-c2ccc3c(c2)[C@@H]2[C@@H](CCN2C(=O)Cc2ccccc2)[C@@H](CO)N3C)cc1 | i
CCc1cnc(N2[C@H](C#N)[C@@H](c3ccc(C4=CCCCC4)cc3)[C@@H]2CO)s1 | i
O=C(c1ccccn1)N1CC(=O)N2[C@H](CO)[C@H](c3ccc(C#CC4CCCC4)cc3)[C@@H]2C1 | i
COc1ccc(CN(C)C[C@@H]2Oc3ccc(NS(=O)(=O)c4ccc(C)cc4)cc3C(=O)N([C@@H](C)CO)C[C@@H]2C)cc1 | i
Cc1ccc(S(=O)(=O)N2C[C@H](O)COC[C@H]3O[C@H](CC(=O)N[C@H]4CCN(Cc5ccccc5)C4)CC[C@@H]32)cc1 | i
O=C(C[C@@H]1C[C@H]2c3cc(NS(=O)(=O)c4ccccc4)ccc3O[C@H]2[C@@H](CO)O1)NC1CCCC1 | i
N#C[C@@H]1[C@H](c2ccccc2-c2ccccc2)[C@@H](CO)N1C(=O)NC1CCCCC1 | i
COc1ccc(S(=O)(=O)Nc2ccc3c(c2)C(=O)N([C@@H](C)CO)C[C@H](C)[C@@H](CN(C)C(=O)Nc2ccc(F)cc2)OCCCC[C@@H](C)O3)cc1 | i
Cc1ccc(S(=O)(=O)Nc2ccc3c(c2)CC(=O)N([C@H](C)CO)C[C@H](C)[C@@H](CN(C)CC2CC2)O3)cc1 | i
C[C@@H]1CN([C@@H](C)CO)C(=O)c2cccc(NS(=O)(=O)c3ccc(Cl)cc3)c2O[C@H]1CN(C)S(=O)(=O)c1cccs1 | i
C[C@H](CO)N1C[C@H](C)[C@H](CN(C)Cc2ccncc2)Oc2ccc(N(C)C)cc2C1=O | i
CO[C@H]1CN(C)C(=O)c2cc(NC(C)=O)ccc2OC[C@@H](C)N(C(=O)CN(C)C)C[C@@H]1C | i
COCC#Cc1cnc2c(c1)C(=O)N([C@@H](C)CO)C[C@H](C)[C@H](CN(C)S(=O)(=O)c1ccccc1)O2 | i

Some of the entries above in a different format:
FGF22 binding,smiles
i,O=C(C[C@H]1CC[C@H]2[C@@H](COC[C@@H](O)CN2Cc2cccc(C(F)(F)F)c2)O1)NCc1ccc(Cl)cc1
i,O=C(C[C@H]1CC[C@H](NC(=O)c2ccncc2)[C@H](CO)O1)NCC1CC1
i,COc1ccc(-c2ccc3c(c2)[C@@H]2[C@@H](CCN2C(=O)Cc2ccccc2)[C@@H](CO)N3C)cc1
i,CCc1cnc(N2[C@H](C#N)[C@@H](c3ccc(C4=CCCCC4)cc3)[C@@H]2CO)s1
i,O=C(c1ccccn1)N1CC(=O)N2[C@H](CO)[C@H](c3ccc(C#CC4CCCC4)cc3)[C@@H]2C1
i,COc1ccc(CN(C)C[C@@H]2Oc3ccc(NS(=O)(=O)c4ccc(C)cc4)cc3C(=O)N([C@@H](C)CO)C[C@@H]2C)cc1
i,Cc1ccc(S(=O)(=O)N2C[C@H](O)COC[C@H]3O[C@H](CC(=O)N[C@H]4CCN(Cc5ccccc5)C4)CC[C@@H]32)cc1
i,O=C(C[C@@H]1C[C@H]2c3cc(NS(=O)(=O)c4ccccc4)ccc3O[C@H]2[C@@H](CO)O1)NC1CCCC1
i,N#C[C@@H]1[C@H](c2ccccc2-c2ccccc2)[C@@H](CO)N1C(=O)NC1CCCCC1
i,COc1ccc(S(=O)(=O)Nc2ccc3c(c2)C(=O)N([C@@H](C)CO)C[C@H](C)[C@@H](CN(C)C(=O)Nc2ccc(F)cc2)OCCCC[C@@H](C)O3)cc1
i,Cc1ccc(S(=O)(=O)Nc2ccc3c(c2)CC(=O)N([C@H](C)CO)C[C@H](C)[C@@H](CN(C)CC2CC2)O3)cc1

Remaining list, next part:
SMILES | FGF22 binding
O=C(C1CC1)N1[C@H](CO)[C@@H]2c3ccccc3NC[C@@H]21 | i
O=C(N[C@@H](Cc1cccnc1)C(=O)N1CCC[C@H]1C(=O)NCCc1ccccc1Cl)c1ccc(Cl)c(Cl)c1 | i
CC(C)NC(=O)Nc1cccc2c1O[C@@H](CN(C)Cc1ccc(C(=O)O)cc1)[C@@H](C)CN([C@H](C)CO)C2=O | i
COc1cccc(-c2cnc3c(c2)C(=O)N([C@@H](C)CO)C[C@@H](C)[C@H](CN(C)Cc2ccc(F)cc2)O3)c1 | i
